# From PubChem
# PKD1 inh: inhibitors of human PKD1 kinase, biochemical, fluorescence polarization | hit rate 0.056% among 200,000 | PKD1 kinase fluorescence polarization assay | Serine/threonine-protein kinase D1 (Homo sapiens), Q15139 | inhibition, %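 (about 10 µM by stock and volumes)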 | AID 797, 2007;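 active = inhibition of 50% or more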;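 note: controls were vehicle for no effect and a reference inhibitor for full effect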
# Target sequence (Q15139 whole entry, looked up): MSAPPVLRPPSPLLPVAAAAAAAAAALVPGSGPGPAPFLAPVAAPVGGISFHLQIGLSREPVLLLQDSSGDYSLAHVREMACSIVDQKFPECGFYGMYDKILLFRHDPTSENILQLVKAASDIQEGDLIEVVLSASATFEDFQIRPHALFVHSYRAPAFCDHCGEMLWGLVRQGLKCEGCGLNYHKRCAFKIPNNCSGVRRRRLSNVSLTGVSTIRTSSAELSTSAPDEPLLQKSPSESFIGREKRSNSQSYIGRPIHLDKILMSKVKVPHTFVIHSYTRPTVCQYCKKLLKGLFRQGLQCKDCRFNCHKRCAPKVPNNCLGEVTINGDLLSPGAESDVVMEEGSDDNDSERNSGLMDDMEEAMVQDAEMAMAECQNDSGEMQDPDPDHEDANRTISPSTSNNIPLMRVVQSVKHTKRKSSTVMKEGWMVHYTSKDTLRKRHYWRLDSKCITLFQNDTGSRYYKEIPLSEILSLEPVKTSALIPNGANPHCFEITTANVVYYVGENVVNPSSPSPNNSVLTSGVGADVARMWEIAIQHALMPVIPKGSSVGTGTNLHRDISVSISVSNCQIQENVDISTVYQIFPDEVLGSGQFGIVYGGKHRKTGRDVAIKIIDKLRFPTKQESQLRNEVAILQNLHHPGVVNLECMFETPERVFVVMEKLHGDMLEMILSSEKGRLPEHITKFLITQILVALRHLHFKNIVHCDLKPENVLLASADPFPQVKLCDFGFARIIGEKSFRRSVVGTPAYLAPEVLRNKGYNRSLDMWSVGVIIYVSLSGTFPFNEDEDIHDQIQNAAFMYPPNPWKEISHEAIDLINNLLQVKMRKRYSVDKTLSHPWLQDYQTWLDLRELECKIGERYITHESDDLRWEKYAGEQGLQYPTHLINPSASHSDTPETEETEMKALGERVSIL
# INS promoter inh: inhibitors of insulin promoter-driven GFP, primary screen, imaging, TRM-6 cells (human fetal islet line), eGFP reporter, cell count; reporter expression induced with tamoxifen; hit rate 0.9% among 130,000; AID 1273, 2008; inhibition, % at 2 µM;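 active = inhibition above the mean plus 3 SD, with well images judged a real hit on visual review, cut at about 60% in these data, passing the limit was not always enough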
# RGS16-Gao HTS: modulators of RGS16 binding to Galphao, primary screen, biochemical, human proteins, multiplexed bead flow cytometry. bead-based flow cytometry RGS16-Galphao binding, fluorescence; actives lie on both sides. Regulator of G-protein signaling 16 (Homo sapiens) + Guanine nucleotide-binding protein …. binding response (% of control), % at 10 µM. hit rate 0.38% among 220,000;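 active = below 25% or above 175%, edge rows of some plates excepted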;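 note: Galphao activated by GDP with aluminum fluoride before binding; 100% = wells without compound and 0% = beads without RGS; some results beyond the cut were filed as inactive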
# GALR2 ag: GALR2 receptor agonists, primary screen, cell-based | Galanin receptor type 2 (Homo sapiens), O43603 | GALR2-expressing cells, agonist activation read-out | activation, %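 (tested at 5 µM)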 | hit rate 0.48% among 140,000 | AID 803, 2007;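 active = above mean plus 3 SD of all compounds, about 5% in these data, not always enough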;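 note: 0% = vehicle buffer wells and 100% = reference agonist at full effect; tested in CHO reporter cells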
# HSV replic up: enhancers of HSV replication in host cells, fold increase, host cell viability; maximum fold increase; HSV replication augmentation in cells; AID 1956, 2009; hit rate 0.005% among 220,000;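 active = peak rise of 1.5-fold or more in the series; tested in PC3 cells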;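 note: first round at 10 µM; read as green reporter fluorescence; hits show the peak of a series up to 25 µM; 1 = signal of infected wells without compound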
# INS promoter inh cell count: also measured in INS promoter inh; calls as there; normalized cell count, %; measured here: cell count, toxicity; reference of the scale not given here;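 cells exposed to compound for 48 h; stained nuclei by imaging scaled within each plate; lower means fewer cells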
# HSV replic up primary fold: further read-out of HSV replic up, marked with its call; fold increase; compound at 10 µM; measured here: primary screen fold increase 10 uM; tested in PC3 cells;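 GFP signal in the first replicate; 1 = infected wells without compound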
# * hit, by the source's call; i = inactive; x = not tested or not shown.
SMILES,PKD1 inh,INS promoter inh,INS promoter inh cell count,RGS16-Gao HTS,GALR2 ag,HSV replic up,HSV replic up primary fold
O=C(CCS(=O)(=O)c1cc(Br)cc2c1N(C(=O)C1CC1)CC2)N1CCN(c2ccccn2)CC1,-11.5,x,x,105.7,x,i,1
CCc1nnc(NS(=O)(=O)c2ccc(NC(=S)NC(=O)/C=C/c3ccc(F)cc3)cc2)s1,6.9,x,x,25.0,-0.4,i,1.1
Nn1cc(-c2ccccc2)nc1SCC(=O)NCCN1C(=O)CSC1=O,-7.8,x,x,110.0,-1.1,i,0.89
COc1c(C(C)C)cc(NC(C)=O)cc1C(C)C,-6.6,-51.7,129.1,76.2,-2.7,i,1.26
Cn1ccs/c1=N\C(=O)Nc1ccccc1,5.6,x,x,98.7,x,i,1.22
CC1(C)CC(=O)C=C(Nc2cccc(O)c2)C1,-7.8,x,x,104.5,-2.1,i,1.03
CC(C)COC(=O)CCn1[nH]c(=O)c2ccccc2c1=O,-3.5,24.2,109.7,102.8,-2.8,i,0.89
C[C@@H]1O[C@@H](O[C@H]2[C@H](Oc3cc(O)c4c(c3)O[C@H](c3ccc(O)cc3)CC4=O)O[C@H](CO)[C@@H](O)[C@@H]2O)[C@H](O)[C@H](O)[C@H]1O,0.8,40.0,92.8,72.4,x,i,0.995
CC(=O)N1CCN(S(=O)(=O)c2cccc(C(=O)Nc3ccc4c(c3)OCO4)c2)CC1,-1.9,15.0,42.0,103.5,x,i,0.95
CN(c1ccc(C(=O)NCCSCc2c(F)cccc2Cl)cc1)S(C)(=O)=O,5.4,x,x,97.7,x,i,1.12
CC(C)CC(=O)c1c[nH]c(C(=O)NCc2cccnc2)c1,4.3,x,x,100.5,x,i,1.02
O=C(Nc1cccc(Br)c1)c1cc2ccccc2o1,-0.7,x,x,101.1,-1.9,i,1.01
COC(=O)[C@H](C)NC(=O)NCc1ccco1,14.3,x,x,103.1,-1.3,i,0.89
CCOC(=O)C1=C(C)Nc2nc3ccccc3n2C1c1cccs1 (stereo unspecified),-4.7,5.6,76.7,59.7,-0.3,i,0.96
CCCS(=O)(=O)N1CCCC(C(=O)NCCN(C)Cc2ccccc2)C1 (stereo unspecified),4.5,x,x,99.8,-0.8,i,1.03
O=C(/C=C/c1ccc(OCCCF)cc1)NCc1ccc(Cl)c(Cl)c1,-0.9,-90.3,123.0,69.6,-2.8,i,0.96
CCN(CC)S(=O)(=O)c1ccc(N/N=C/c2ccc(OC)c(OC)c2OC)nc1,-1.6,-18.5,110.7,107.9,-0.7,i,0.76
COc1ccc2c(c1)OC(O)(C(F)(F)F)CC2=O (stereo unspecified),8.4,-92.9,74.5,101.2,-0.9,i,0.79
CCN(CC)c1ccc(NC2CC(=O)N(CCc3ccc(OC)cc3)C2=O)cc1 (stereo unspecified),x,x,x,101.7,x,i,1.02
COc1ccc(C(=O)C2CCCN(Cc3cn[nH]c3-c3ccc(F)cc3)C2)cc1OC (stereo unspecified),-4.9,20.0,124.9,103.8,x,i,0.84
CC(=O)Nc1nnc(-c2c(-c3ccccc3Cl)noc2C)o1,x,x,x,103.7,x,i,0.93
COc1ccc(NC(=O)N2CCC(C(=O)c3ccc(F)cc3)CC2)cc1,-1.0,14.3,113.4,97.0,-1.9,i,1.01
Cc1ccc(S(=O)(=O)NCCCCCC(=O)Nc2ccccc2)cc1,8.3,16.7,160.3,112.0,0.1,i,0.9
COc1cccc(N2CCN(c3ncccn3)CC2)c1,12.2,x,x,101.8,-0.7,i,1.03
Cc1ccnc(NS(=O)(=O)c2ccc(NC(=O)c3ccc(C)o3)cc2)n1,-10.7,-250.0,80.5,74.3,-1.1,i,1.05
NNC(=O)CNC(=O)c1ccc(F)cc1,-1.7,-26.7,92.2,100.5,0.0,i,0.96
O=c1nc2sc3ccccc3n2c(=O)n1-c1ccc(Cl)cc1,0.0,x,x,103.1,x,i,1.03
COc1ccccc1OCC(=O)N/N=C1\CCCCc2ccccc21,x,x,x,101.2,x,i,0.9
CCC(C)(C)NC(=O)C(OC(=O)c1cc2sccc2n1C)c1ccc(OC)cc1 (stereo unspecified),4.7,x,x,107.2,0.0,i,1.19
Fc1ccc2nc(C3CCN(Cc4nc(CC5CC5)no4)CC3)[nH]c2c1,-5.2,x,x,114.1,x,i,0.92
COc1ccc(-c2noc(-c3ccccc3C(=O)NCc3ccco3)n2)cc1,0.9,-44.7,146.9,105.1,-1.7,i,0.82
COc1ccc(N(CC(=O)Nc2ccc(F)cc2)S(=O)(=O)c2ccccc2[N+](=O)[O-])c(OC)c1,1.6,-33.3,111.4,113.3,x,i,1
O=C(NN=C1CCCCCC1)c1cccnc1,-2.8,-16.7,194.1,103.2,x,i,0.92
CC(C)C(=O)Nc1nnc(-c2ccco2)s1,x,x,x,94.8,x,i,0.94
CCC1CCCCN1C(=O)c1cc(COc2ccc3ncccc3c2)on1 (stereo unspecified),-5.4,x,x,106.0,x,i,1.04
Nc1[nH]n2c(=O)cc(-c3ccccc3)nc2c1N=Nc1ccccc1,-7.5,x,x,104.2,-2.7,i,0.98

# Reformatted: entries from further up
Compound	PKD1 inh	INS promoter inh	INS promoter inh cell count	RGS16-Gao HTS	GALR2 ag	HSV replic up	HSV replic up primary fold
Fc1ccc2nc(C3CCN(Cc4nc(CC5CC5)no4)CC3)[nH]c2c1	-5.2	x	x	114.1	x	i	0.92
COc1ccc(-c2noc(-c3ccccc3C(=O)NCc3ccco3)n2)cc1	0.9	-44.7	146.9	105.1	-1.7	i	0.82
COc1ccc(N(CC(=O)Nc2ccc(F)cc2)S(=O)(=O)c2ccccc2[N+](=O)[O-])c(OC)c1	1.6	-33.3	111.4	113.3	x	i	1
O=C(NN=C1CCCCCC1)c1cccnc1	-2.8	-16.7	194.1	103.2	x	i	0.92

# (further entries)
SMILES,PKD1 inh,INS promoter inh,INS promoter inh cell count,RGS16-Gao HTS,GALR2 ag,HSV replic up,HSV replic up primary fold
C=CCn1c(SCC(=O)NCc2ccco2)nc2sc3c(c2c1=O)CCCC3,-5.9,-15.5,58.0,108.4,-0.4,i,0.87
C=C(C)CSc1nnc2n(Cc3ccccc3)c(=O)c3c4c(sc3n12)CCC4,-5.6,-8.1,29.9,93.0,-1.5,x,x
COc1ccc(N2C(=S)NC3c4cc(Cl)ccc4OC2(C)C3C(=O)N(C)C)cc1 (stereo unspecified),-3.9,x,x,100.9,x,i,0.8
COc1ccc(OC)c(NC2=NC3(CCCC3)N=C(N)N2)c1,-4.7,50.0,145.8,147.8,-1.3,i,0.96
CC1(C)N=C(SCC(=O)Nc2ccc(Cl)cc2)C(c2ccccc2)=N1,-7.4,12.9,71.5,56.7,-1.3,i,0.87
Cc1ccccc1NC(=O)c1ccccc1NC(=O)Cc1cccc2ccccc12,2.1,-60.0,43.8,150.0,-1.5,i,0.92
CC(C)C(c1nnnn1C1CCCC1)N1CCC(C(N)=O)CC1 (stereo unspecified),-0.1,x,x,89.7,x,i,0.95
Nc1nccc(-c2nn(-c3ccc(Cl)cc3)ccc2=O)n1,x,x,x,101.3,x,i,0.93
COc1ccc(/C=C2\C(=O)N(c3c(Cl)cc(Cl)cc3Cl)N=C2NC(=O)c2cccc([N+](=O)[O-])c2)cc1,-3.4,x,x,87.1,-2.2,i,1.04
CCOC(=O)N1CCN(C(=O)N2CCOCC2)CC1,-9.4,-327.8,57.6,92.3,-1.1,i,0.987
Cc1ccc(-n2c(SCC(N)=O)nnc2-c2ccccn2)cc1C,0.1,-16.1,70.3,113.0,-1.5,i,1.02
NC(=O)N1CCN(C(=O)c2ccco2)CC1,-4.8,-50.0,73.2,99.3,-2.4,i,0.99
Cc1ccc(NC(=O)Cc2c[nH]c3ccccc23)cc1S(=O)(=O)N1CCCCCC1,-2.0,8.3,105.7,99.5,0.5,i,0.87
Cc1ccc(C)c(NC(=S)NCCN(C2CCCCC2)C2CCCC2)c1,-5.0,-53.3,67.7,101.8,x,i,0.88
COc1ccccc1CN(Cc1nc2ccccc2c(=O)[nH]1)C(=O)Nc1ccccc1C,-4.7,25.0,114.8,100.4,-1.1,i,0.78
CCn1c(C)nc2cc(S(=O)(=O)C(F)F)ccc21,0.7,-4.7,164.0,96.6,-1.8,i,0.89
O=C(NCCc1cnn(-c2ccccc2)c1)c1cc(COc2c(F)cccc2F)on1,-3.1,x,x,110.2,x,i,0.9
Cc1noc(C)c1S(=O)(=O)N(CCc1ccccc1)Cc1ccccc1,-10.6,x,x,95.3,-0.3,i,1.04
c1ccc2c(c1)oc1c(Nc3ccc(CN4CCOCC4)cc3)ncnc12,-9.0,6.1,106.2,102.1,-0.8,i,0.977
CNC(=S)N/N=C/c1c(C(=O)OC)cnn1-c1ccc(F)cc1F,x,x,x,107.6,x,i,1.01
COc1cccc(-c2cc(C(=O)NC3CCCC3)no2)c1,-7.0,39.3,84.6,104.6,-1.5,i,0.87
CC(=O)NNC(=O)c1cc2sccc2s1,x,x,x,95.3,x,i,1.09
C=CCOc1ccccc1/C=N/NC(=O)c1ccc(Cl)cc1Cl,1.6,6.1,156.3,100.7,-0.3,i,0.89
CCCC(O)(c1ccc(Cl)cc1)C(CN1CCOCC1)c1ccccc1 (stereo unspecified),-7.3,x,x,100.9,-2.6,i,0.92
CC(=O)c1ccc(NC(=O)CSc2nc3nc(C)cc(C)n3n2)cc1,-11.6,x,x,101.7,-2.1,i,0.98
COC(=O)[C@H](CCSC)NC(=O)Nc1ccc(OC)cc1,7.5,50.0,118.6,97.1,-2.0,i,0.9
CCOC(=O)c1ccc(NC(=O)c2nc[nH]c2C(=O)NC2CCN(C(=O)OC(C)(C)C)CC2)cc1,x,x,x,100.1,x,i,0.84
C/C(=C/C#N)Nc1ccc(C)cc1,-3.3,x,x,96.5,x,i,1.01
Cc1ccc(C(=O)NCCc2n[nH]c(=S)n2C)cc1,-6.8,0.0,90.5,100.4,x,i,0.99
O=C(N/N=C/c1c(F)c(F)c(F)c(F)c1F)c1ccc(Cn2cc(Br)cn2)o1,-2.0,-33.3,59.1,81.2,-1.7,i,0.76
O=C(NCCc1ccc(Cl)cc1)c1ccc2nc[nH]c2c1,-2.4,26.7,50.6,103.0,x,i,1.03
Cc1ccc(C(=O)O)cc1S(=O)(=O)NCC1CCCO1 (stereo unspecified),-10.0,-45.7,109.5,96.3,0.0,i,0.81
CC1CCCC(NC(=O)COC(=O)c2ccccc2NC(=O)c2ccco2)C1C (stereo unspecified),-2.5,23.3,69.2,114.3,-1.5,i,0.8
CCn1c(/C=C/c2ccccc2[N+](=O)[O-])nc2ccccc2c1=O,-2.2,x,x,106.6,x,i,1.04
COC(=O)c1ccc(NC(=O)C2CCCCC2C(=O)O)cc1 (stereo unspecified),-3.5,25.0,100.8,90.1,-3.5,i,1
Cc1nn(C)cc1C(=O)Nc1cc(Oc2ccc(Cl)cc2)cc([N+](=O)[O-])c1,0.8,11.4,66.3,103.8,0.1,i,1.09
O=c1cc(-c2cccc(Br)c2)nc(-c2ccccc2F)o1,-11.2,-8.3,80.9,113.7,-0.8,i,0.87
Cc1c(C(=O)N2CCCCC2C)sc2ncnc(N3CCc4ccccc4C3)c12 (stereo unspecified),-5.9,-21.4,100.2,101.6,x,i,0.86
CSc1cccc(NC(=S)N(CCC(C)C)C(C)c2ccncc2)c1 (stereo unspecified),x,x,x,95.0,x,i,0.81
CC(C)Cn1c(N)c(C(=O)COC(=O)c2cccnc2Cl)c(=O)n(C)c1=O,-5.5,-27.3,52.9,102.5,x,i,1
C=C(C)Cn1c(=S)[nH]c2ccccc2c1=O,-3.8,20.0,155.2,99.7,-0.6,i,1.01
CC(=O)c1ccc(OCCCC(=O)Nc2ccc(C)c(S(=O)(=O)N(C)C)c2)cc1,-1.5,8.1,197.7,110.6,-1.2,i,0.91
Cc1cc(/C=N\NC(=O)COc2cccc3cccnc23)c(C)n1-c1ccc(Br)cc1,1.1,34.3,163.9,95.0,0.6,i,0.88

# Some of these compounds in order of molecular weight, highest first.
SMILES,PKD1 inh,INS promoter inh,INS promoter inh cell count,RGS16-Gao HTS,GALR2 ag,HSV replic up,HSV replic up primary fold
CSc1cccc(NC(=S)N(CCC(C)C)C(C)c2ccncc2)c1 (stereo unspecified),x,x,x,95.0,x,i,0.81
O=c1cc(-c2cccc(Br)c2)nc(-c2ccccc2F)o1,-11.2,-8.3,80.9,113.7,-0.8,i,0.87
C=C(C)Cn1c(=S)[nH]c2ccccc2c1=O,-3.8,20.0,155.2,99.7,-0.6,i,1.01
